Sa ugtP lethal = compounds lethal to S. aureus RN4220 ugtP deletion mutant; growth inhibition, % (concentration not given with the values); 330,000 tested, 0.54% active; OD600 growth, 16 h; some inactives read as strong as hits;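 active means z-score under -3 and OD600 up to 0.15 on both plates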;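 further: plate controls were untreated wells for no effect and antibiotic for full effect; wells of about 80 µL received 100 nL stock; the first replicate is given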
Mtb hypoxia inh = inhibitors of hypoxia-regulated fluorescent reporter in Mycobacterium tuberculosis; M. tuberculosis hypoxia-regulated fluorescent reporter, fluorescence; fluorescence inhibition, % (no concentration beside the values); 300,000 tested, 0.1% active;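 active means 35 to 45% if threefold the growth effect, above 45% if 1.5-fold the growth effect; inactive means the rest, general growth blockers included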;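 further: wells of about 50 µL received 100 nL stock; 0% = vehicle wells and 100% = reference inhibitor wells; whole bacteria with a GFP reporter of the hypoxia response; strong numbers were not always called active; many hits fall short of the cut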
Autofluor counter = flagged as autofluorescent in microsphere protease counterscreen. 360,000 tested, 3.1% active. compound autofluorescence counterscreen, microsphere flow cytometry; active compounds read high. fluorescence intensity (no concentration beside the values). AID 624483;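 active means at least 3 SD above the mean of all compounds, about 16000 in these data; inconclusive means too few beads counted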;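 further: 100 nL of 1 mM stock went into each well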
Sa RN4220 lethal = S. aureus RN4220 growth inhibition; OD600, 16 h; inhibition, % (no concentration beside the values); 330,000 tested, 0.33% active; AID 1259311;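 active means z-score of -3 or lower and OD600 up to 0.18 on both plates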;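 further: plate controls were untreated cells for no effect and reference antibiotic for full effect; stock transfer was 100 nL into about 80 µL; one replicate is shown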
PrP 5UTR inh = suppresses PrP 5' UTR mRNA reporter expression | 340,000 tested, 0.35% active | AID 488862 | inhibition, % (no concentration beside the values) | cell-based PrP 5' UTR mRNA reporter, plate reader;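 active means every replicate at 50% or more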;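 further: 0 = median of the neutral control wells; tested in H4 reporter cells; numbers are from one replicate; inactives centre near -14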
BJeLR viability = kills HRASV12-expressing BJeLR cells. BJeLR (HRASV12) viability, CellTiter-Glo ATP luminescence, 48 h; reference of the scale not given here. inhibition, % (test concentration not listed). 300,000 tested, 0.17% active. AID 1554;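 active means replicate mean above 50%; inconclusive means above 50% but judged a plate artefact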;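 further: 50 nL library stock added to about 25 µL; numbers are from one replicate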
Mtb hypoxia inh growth = recorded beside Mtb hypoxia inh, whose call it bears; growth inhibition, %; measured here: M. tuberculosis growth (absorbance);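 0% = vehicle and 100% = reference antibiotic; read after six days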
* marks the source's active call; other numbers are inactive results; ? = inconclusive; . = no result given.

SMILES | Sa ugtP lethal | Mtb hypoxia inh | Mtb hypoxia inh growth | Autofluor counter | Sa RN4220 lethal | PrP 5UTR inh | BJeLR viability
COc1ccc2c(c1)O[C@H](c1ccc3c(c1)OCO3)[C@@H](O)C2=O | . | . | . | 4120 | . | -64.5 | 0.5
Cn1c(=O)n(C)c2cc(S(=O)(=O)NCc3ccccc3)ccc21 | -2.5 | 12.5 | -0.4 | 3128 | -8.9 | -18.4 | 8.2
Fc1ccc(CNc2nc(-c3ccccc3)nc3ccccc23)cc1 | 1.7 | -7.6 | 5.6 | 2806 | -2.5 | -20.0 | 5.2
Cc1cc(OCc2nn[nH]n2)c2c3c(c(=O)oc2c1)CCCC3 | 14.1 | 12.2 | 4.1 | 3317 | 3.4 | -13.6 | -0.9
O=C(COC(=O)/C=C/c1cccs1)Nc1ccccc1Cl | 3.5 | 3.4 | -2.0 | 6960 | 6.1 | -23.9 | -2.1
Cc1cccc(NC(=O)C(=O)NN=Cc2ccncc2)c1 | 4.6 | -5.6 | 5.3 | . | 4.7 | . | .
C=CCn1c(SCC(=O)N2CCN(CCO)CC2)nc2sc3c(c2c1=O)CCC3 | 4.3 | 1.8 | 3.4 | 6370 | 1.3 | 0.0 | 8.8
CCC(C)c1ccc2oc(-c3ccc(NC(=O)Cn4cnc5c(=O)n(C)c(=O)n(C)c54)cc3)nc2c1 (stereo not given) | 18.5 | 6.9 | 11.8 | 9037 | -9.5 | -70.0 | 5.3
CCNCc1cc(Cl)c(OCc2ccccc2)c(OCC)c1 | -5.8 | 23.0 | 4.2 | 3208 | 4.1 | -15.0 | 8.2
Cc1nnc(SCC(=O)N2CCOCC2)s1 | -4.8 | -2.7 | 5.5 | 19625* | -0.6 | -10.5 | 5.6
COc1ccccc1/C=C/C(=O)N1CCC(c2ccccc2)C1 (stereo not given) | -2.4 | 8.1 | 9.4 | 2037 | 5.0 | -88.6 | 3.6
CC1(C)C(=O)Nc2ccccc2N1C(=O)CSc1nnc2ccccn12 | -0.1 | 6.5 | -0.5 | 3118 | 4.2 | -10.5 | 3.7
O=C(O)c1ccc2c(=O)[nH]c(CN3CCOCC3)nc2c1 | -3.1 | 3.4 | 1.4 | 2547 | -13.9 | 0.5 | -0.5
CCOc1ccc(CCNC(=O)COC(=O)CNS(=O)(=O)c2ccc(C)cc2)cc1OCC | 0.8 | 8.4 | 0.5 | 5190 | 0.5 | -21.2 | 0.9
CCCn1c(SCC(=O)NC2CCCc3ccccc32)n[nH]c1=O (stereo not given) | -3.3 | 18.5 | 3.4 | 7451 | 2.0 | -36.9 | 2.7
C[C@@H]1[C@H]2CCCC[C@H]2CN(C(=O)OC(C)(C)C)[C@@H]1c1cn(Cc2ccccc2)c2ccc(F)cc12 | 55.5 | 5.6 | 10.3 | 3665 | -4.3 | -19.4 | .
N#CC(C#N)=C1NC2(CCCC2)Cc2ccccc21 | 16.1 | 6.4 | -2.6 | 10416 | 4.0 | 11.8 | -5.9
CN1C(=O)[C@@H]2[C@H](C1=O)[C@@H]1C(=O)Nc3ccccc3C(=O)N1[C@@H]2c1ccc(F)cc1 | . | . | . | 4338 | . | 0.8 | 0.1
CN(C)CCC1CCN(c2cc(C#N)c(C#N)cc2[N+](=O)[O-])CC1 | 7.1 | 3.2 | -1.7 | 2982 | 12.4 | -15.8 | -5.7
COc1ccc(Cl)cc1S(=O)(=O)NC(C)C(=O)NCCCn1ccnc1 (stereo not given) | 7.2 | 5.7 | -5.9 | 5277 | 3.3 | -25.3 | 4.7
O=C(NCc1nc2ncc(Br)cc2[nH]1)c1ccccc1 | 13.4 | 7.8 | 15.2 | 8526 | 4.5 | -24.4 | 0.6
COc1ccc(N2CCN(CC(O)COC(c3ccccc3)c3ccccc3)CC2)cc1 (stereo not given) | -0.6 | -0.1 | 9.1 | 3554 | 1.4 | -4.7 | -13.2
CCOC(=O)C1C2COc3cc(OC)ccc3C2N2C(=O)CN(Cc3ccccc3)C(=O)[C@@]12C (stereo not given in full) | 0.5 | 2.2 | 0.8 | . | 1.6 | . | .
Cc1ncc(S(=O)(=O)c2ccccc2)c(-c2ccccc2Cl)n1 | -0.8 | . | . | 4032 | 9.5 | -11.9 | -7.2
COc1ccc(CNC(=O)COC(=O)CNC(=O)c2sc3ccccc3c2Cl)cc1OC | -2.6 | 11.9 | 5.8 | 4053 | 4.9 | -8.3 | .
CC(=O)NC(Cc1ccc(C(C)C)cc1)C(=O)NC1CCN(C(=O)c2cccc(C)c2)CC1 (stereo not given) | -0.6 | -12.1 | -6.4 | 4588 | 4.9 | -11.6 | 14.1
COc1cc(C(N)=O)ccc1OCc1ccccc1 | 3.0 | . | . | 2685 | 1.3 | -41.2 | -1.8
CC(NC(=O)c1cc(-c2ccccc2)nc2ccccc12)C1CCCO1 (stereo not given) | 2.0 | 11.3 | 2.5 | . | 4.0 | . | -8.9
CCOC(=O)c1cnc2c(OC)cccc2c1N1CCN(c2ccc(OC)cc2)CC1 | 0.2 | 14.1 | 18.1 | 4684 | 3.1 | -8.8 | 7.5
Cc1nc2ccc(NC(=S)NCc3ccccc3)cc2nc1C | 0.2 | -2.5 | 5.4 | 4128 | 0.1 | -61.7 | -1.3

Fetched by compound from the entries so far (2):
SMILES | Sa ugtP lethal | Mtb hypoxia inh | Mtb hypoxia inh growth | Autofluor counter | Sa RN4220 lethal | PrP 5UTR inh | BJeLR viability
COc1ccc(N2CCN(CC(O)COC(c3ccccc3)c3ccccc3)CC2)cc1 (stereo not given) | -0.6 | -0.1 | 9.1 | 3554 | 1.4 | -4.7 | -13.2
CN1C(=O)[C@@H]2[C@H](C1=O)[C@@H]1C(=O)Nc3ccccc3C(=O)N1[C@@H]2c1ccc(F)cc1 | . | . | . | 4338 | . | 0.8 | 0.1

Later entries
SMILES | Sa ugtP lethal | Mtb hypoxia inh | Mtb hypoxia inh growth | Autofluor counter | Sa RN4220 lethal | PrP 5UTR inh | BJeLR viability
COc1ccc(C(=O)N2CCN(Cc3ccc(OC)c(OC)c3)CC2)cc1 | 11.5 | -0.4 | -11.9 | 3398 | 2.3 | -13.3 | 1.5
Cc1cc(NC(=O)CN(C)S(=O)(=O)c2cccc(Cl)c2)no1 | 11.2 | 12.7 | 17.3 | 5191 | -1.5 | -9.0 | 5.9
CC(C)Cc1c2c([nH]c(=S)c1C#N)CCCC2 | 3.0 | 4.0 | -0.4 | 2119 | 1.1 | -14.0 | -12.9
CN1CCN(c2ccc(C(=O)NC3CCCCC3)cc2[N+](=O)[O-])CC1 | -5.9 | 5.4 | 5.5 | 4497 | 4.4 | -17.8 | 13.4
CCOC(=O)Cc1csc(NC(=O)CCCN2C(=O)c3ccccc3C2=O)n1 | -1.2 | 2.3 | 3.7 | 11707 | 2.4 | -19.9 | -5.7
O=C(ON=C(c1ccccc1)c1ccncc1)c1ccccc1Cl | 5.6 | -0.8 | 1.5 | . | 1.7 | . | .
COc1ccccc1N1CCN(C(=O)COc2ccc(S(=O)(=O)NC(C)(C)C)cc2)CC1 | 3.3 | 12.1 | 8.4 | . | 4.3 | . | 15.1
Cc1ccc(C)c(NC(=O)CSc2nnc(C)c(=O)n2N)c1 | 7.9 | 10.1 | 2.4 | 2733 | 0.3 | -31.5 | 9.7
COc1cc(NC(C)=O)ccc1-c1cc2ccccc2oc1=O | -6.7 | -1.1 | -0.6 | 4789 | 3.5 | -18.0 | 3.6
CC(=O)C1C(c2ccc(O)cc2)NC(=O)NC1(O)C(F)(F)F (stereo not given) | 0.6 | 5.7 | -0.4 | 5586 | 4.6 | -28.1 | -4.9
N#Cc1c2ncn(CC(=O)c3ccc(Br)cc3)c(=O)c2c2n1CCC2 | -10.8 | . | . | 4249 | 1.0 | -1.5 | 5.7
O=C(Nc1cc([N+](=O)[O-])ccc1O)c1cccc(NC(=O)c2ccco2)c1 | 5.9 | 12.0 | 7.0 | 3772 | 7.1 | -23.3 | -10.7
CC(=O)c1cccc(NC(=O)Cn2cnc(S(=O)(=O)N3CCOCC3)c2)c1 | -5.7 | -8.2 | -6.9 | 6511 | -4.6 | -9.5 | 13.4
COc1ccc(C(=O)N2CCN(c3ccccn3)CC2)cc1[N+](=O)[O-] | 6.4 | 13.3 | 12.0 | 3897 | -1.2 | -27.4 | .
CCCCCCN=C(C)c1c(O)n(Cc2ccccc2)c(=O)[nH]c1=O | -9.6 | 9.4 | 4.6 | 9708 | 2.4 | -18.7 | -11.1

Twelve of the compounds above, tab-delimited:
SMILES	Sa ugtP lethal	Mtb hypoxia inh	Mtb hypoxia inh growth	Autofluor counter	Sa RN4220 lethal	PrP 5UTR inh	BJeLR viability
CN1CCN(c2ccc(C(=O)NC3CCCCC3)cc2[N+](=O)[O-])CC1	-5.9	5.4	5.5	4497	4.4	-17.8	13.4
CCOC(=O)Cc1csc(NC(=O)CCCN2C(=O)c3ccccc3C2=O)n1	-1.2	2.3	3.7	11707	2.4	-19.9	-5.7
O=C(ON=C(c1ccccc1)c1ccncc1)c1ccccc1Cl	5.6	-0.8	1.5	.	1.7	.	.
COc1ccccc1N1CCN(C(=O)COc2ccc(S(=O)(=O)NC(C)(C)C)cc2)CC1	3.3	12.1	8.4	.	4.3	.	15.1
Cc1ccc(C)c(NC(=O)CSc2nnc(C)c(=O)n2N)c1	7.9	10.1	2.4	2733	0.3	-31.5	9.7
COc1cc(NC(C)=O)ccc1-c1cc2ccccc2oc1=O	-6.7	-1.1	-0.6	4789	3.5	-18.0	3.6
CC(=O)C1C(c2ccc(O)cc2)NC(=O)NC1(O)C(F)(F)F (stereo not given)	0.6	5.7	-0.4	5586	4.6	-28.1	-4.9
N#Cc1c2ncn(CC(=O)c3ccc(Br)cc3)c(=O)c2c2n1CCC2	-10.8	.	.	4249	1.0	-1.5	5.7
O=C(Nc1cc([N+](=O)[O-])ccc1O)c1cccc(NC(=O)c2ccco2)c1	5.9	12.0	7.0	3772	7.1	-23.3	-10.7
CC(=O)c1cccc(NC(=O)Cn2cnc(S(=O)(=O)N3CCOCC3)c2)c1	-5.7	-8.2	-6.9	6511	-4.6	-9.5	13.4
COc1ccc(C(=O)N2CCN(c3ccccn3)CC2)cc1[N+](=O)[O-]	6.4	13.3	12.0	3897	-1.2	-27.4	.
CCCCCCN=C(C)c1c(O)n(Cc2ccccc2)c(=O)[nH]c1=O	-9.6	9.4	4.6	9708	2.4	-18.7	-11.1

Going on with the list.
SMILES | Sa ugtP lethal | Mtb hypoxia inh | Mtb hypoxia inh growth | Autofluor counter | Sa RN4220 lethal | PrP 5UTR inh | BJeLR viability
COc1ccc(C(=O)NC(=S)Nc2ccc(Cl)c(C(=O)O)c2)cc1 | 2.1 | 8.5 | 3.0 | 5384 | 5.5 | -13.9 | 6.0
N#C/C(=C\c1ccccn1)c1ccccn1 | -3.1 | 14.5 | 5.6 | 3097 | 5.0 | -32.7 | -0.3
CCOc1ccccc1C(=O)NCc1ccco1 | -14.8 | . | . | 2801 | -5.8 | -17.2 | 3.3
CCOc1cc2[nH]c(=O)n(Cc3ccc(C(=O)NCCCN4CCCC4=O)cc3)c(=O)c2cc1OCC | 0.8 | -2.2 | -0.3 | 4742 | -3.8 | 11.6 | 0.2
CC1(OC(=O)c2cccs2)C(=O)C=C2C=C(C3CC3)OC=C2C1=O (stereo not given) | 1.1 | 19.9 | 8.2 | 3036 | 6.6 | -5.3 | 6.4
COC(=O)c1c(NC(=O)c2ccccc2)sc(Cc2ccccc2)c1C | 6.6 | 11.6 | 3.6 | 9426 | 7.8 | -17.1 | 8.4
CCN(CC)S(=O)(=O)c1ccc2c(c1)N(CC(=O)NCCN1CCOCC1)C(=O)CO2 | 12.7 | 6.1 | -8.0 | 5456 | 4.0 | -2.9 | 2.2
CCCCOC(=O)C1=C(N)OC2=C(C(=O)CCC2)[C@]12C(=O)N(C)c1ccccc12 | 3.0 | . | . | 2125 | 7.8 | -1.4 | -3.4
Cc1c(C(=O)NNC(=O)Nc2ccc([N+](=O)[O-])cc2)oc2ccccc12 | -6.0 | -0.9 | 2.4 | ? | -5.5 | -3.2 | 1.0
COc1ccc(N(CC(=O)Nc2ccc(C)c(C)c2)C2=NC3CS(=O)(=O)CC3S2)cc1 (stereo not given) | -5.4 | 4.4 | 3.1 | 5509 | 4.3 | -51.3 | -0.3
O=C(Nc1ccc2c(c1)OCCO2)c1cc(F)c(F)cc1Cl | 8.1 | -0.5 | 14.4 | 2982 | 1.0 | -63.7 | 7.2
C/C(C=NNC(=O)CN1CCN(S(=O)(=O)c2ccc(C)cc2)CC1)=C\c1ccccc1 | -7.1 | -2.1 | 12.2 | . | 1.9 | . | .
O=C(N/N=C/c1cccc(OCc2ccccc2)c1)c1cccs1 | . | . | . | 8939 | . | -40.8 | 5.9

Source: PubChem
